Compound activity as filed in PubChem BioAssay.
Yeast UUG start – modulators of yeast start codon fidelity, primary screen, whole organism, S. cerevisiae, single point, plate reader; activity score, % at 18.7 µM; actives 0.13% (n = 350,000); S. cerevisiae UUG-firefly luciferase reporter, luminescence/redox ratio;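 active = replicate mean at a twofold rise or more, about +100% in these data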;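 note: firefly luciferase made from a UUG start codon reports start codon fidelity; reporter light over untreated wells divided by growth signal over untreated wells; some hits fall short of that in this replicate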
Env fusion inh – inhibitors of HIV-1 Env-driven cell-cell fusion, primary screen, HeLa-JRFL effector, CEM21 target cells, luciferase | actives 1.1% (n = 360,000) | inhibition, % at 12.3 µM | AID 651610, 2012;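 active = mean replicate inhibition score of at least 50 and every replicate individually at or above 50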;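 note: 0% = plate neutral controls and 100% = maraviroc near 300 nM; one replicate is shown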
Rce1 inhib – yeast Rce1p protease inhibitors, primary screen, biochemical, fluorescence, cell-free homogeneous | CAAX prenyl protease 2 (Saccharomyces cerevisiae (strain ATCC 204508 / S288c)), Q03530 | yeast membranes, quenched prenylated peptide cleavage fluorescence | calls only | actives 0.27% (n = 290,000) | AID 2563, 2010;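 active = fall in fluorescence gain of 50% or more versus controls, with final raw signal at or below 3038400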;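 note: plate controls were neutral control wells for no effect and wells lacking membranes for full effect; tested at 10 µM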
eIF4H inh – human eIF4H binding inhibitors, primary screen, translation initiation inhibitor project, biochemical, uHTS, fluorescence polarization | Eukaryotic translation initiation factor 4H (Homo sapiens), Q15056 | eIF4H fluorescence polarization binding assay | inhibition, % at 35 µM | actives 0.94% (n = 290,000) | AID 2012, 2009;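 active = 50% or more with normal probe brightness, or confirmed in later tests; about a fifth of its hits are not listed in these tables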;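 note: calls also rest on retests at 20 µM and on dose response follow-up; 0% = protein and probe with vehicle and 100% = probe without protein; strong numbers were not always called active; many hits fall short of the cut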
CSC inhib – cancer stem cell viability inhibitors, primary screen, luminescence; cancer stem cell-like cells viability; inhibition, % at 7.5 µM; actives 1.1% (n = 300,000); AID 2717, 2010;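 active = mean at 75% or more and at least half the replicates too; tested in HMLE shEcad cells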;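 note: 0% = median of negative and 100% = median of positive control wells; the first replicate is given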
MT1-MMP act inh – blockers of MT1-MMP proenzyme processing, primary screen, HT1080 RFP-PRO-GFP cells, GFP/RFP fluorescence; GFP/RFP ratio change, % at 20 µM; Matrix metalloproteinase-14 (Homo sapiens), P50281; GFP/RFP ratio fluorescence, overnight; percent of plate control window, DMSO zero; actives 0.061% (n = 360,000); AID 651647, 2012;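 active = GFP/RFP ratio change of at least 30% with cell ATP level not reduced by more than half and red fluorescence within 50% of control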; note: strong numbers were not always called active
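Material: RFP-PRO-GFP reporter HT1080 cells. Dosing: single-point 20 µM compound, 1% DMSO. Controls: DMSO and RFP-L50D-GFP cell wells. Timing: cells overnight before dosing, compound overnight, 37 °C, 5% CO2. Measure: GFP/RFP fluorescence ratio.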
PABP polyA inh – PABP poly(A) RNA binding inhibitors, primary screen, biochemical, fluorescence polarization, uHTS. Polyadenylate-binding protein 1 (Homo sapiens), P11940. inhibition, % at 35 µM. actives 1% (n = 290,000). AID 2014, 2009;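 active = 50% or more with normal probe brightness, or confirmed in later tests; about a fifth of its hits are not listed in these tables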;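 note: calls also rest on retests at 20 µM and on dose response follow-up; controls were probe without protein and protein plus probe with vehicle; some compounds called inactive have numbers as strong as hits; many hits fall short of the cut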
Target sequence (P11940 whole entry, looked up): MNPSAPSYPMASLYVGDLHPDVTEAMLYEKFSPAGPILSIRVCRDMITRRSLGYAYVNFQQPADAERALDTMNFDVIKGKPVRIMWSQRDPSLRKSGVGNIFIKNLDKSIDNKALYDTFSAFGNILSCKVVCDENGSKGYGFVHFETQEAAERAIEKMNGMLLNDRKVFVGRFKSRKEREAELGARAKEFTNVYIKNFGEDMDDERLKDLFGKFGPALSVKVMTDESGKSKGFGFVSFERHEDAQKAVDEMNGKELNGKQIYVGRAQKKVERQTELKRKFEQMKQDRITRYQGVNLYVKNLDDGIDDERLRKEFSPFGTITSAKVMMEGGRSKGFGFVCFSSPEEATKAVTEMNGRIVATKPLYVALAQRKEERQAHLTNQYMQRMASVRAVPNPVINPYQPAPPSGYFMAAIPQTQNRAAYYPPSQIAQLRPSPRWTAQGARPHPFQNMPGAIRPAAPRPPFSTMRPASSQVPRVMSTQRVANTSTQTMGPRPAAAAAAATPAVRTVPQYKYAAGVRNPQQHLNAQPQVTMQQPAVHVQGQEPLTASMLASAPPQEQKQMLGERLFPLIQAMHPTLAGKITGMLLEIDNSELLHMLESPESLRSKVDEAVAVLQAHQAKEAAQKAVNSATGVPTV
MT1-MMP act inh RFP – further read-out of MT1-MMP act inh, marked with its call; RFP signal change, %; measured here: RFP expression control read;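 0 = vehicle wells; hits needed this value within 50% of zero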
Active calls of the source: *; i = inactive; nt = not tested or not shown; & = joins results of further samples; [ ] = dose if it differs, or a comment. This is a subset. The share of hits here may be higher or lower than overall.

SMILES	Yeast UUG start	Env fusion inh	Rce1 inhib	eIF4H inh	CSC inhib	MT1-MMP act inh	MT1-MMP act inh RFP	PABP polyA inh
O=C(CN1CCCCCC1)Nc1ccc(Br)cc1	-19.0	18.0	i	-4.0	-9.9	1.1	4.5	-1.4
COc1ccc([C@@H]2[C@@H]3C(=O)N(C(C)(C)C)C(=O)[C@@H]3[C@]3(Cc4ccccc4)C(=O)N(c4ccccc4)C(=O)N23)cc1	-11.6	4.0	i	nt	2.9	-1.7	-1.2	nt
O=C(N/N=C(/c1ccccc1)c1ccncc1)c1ccc2c(c1)OCO2	-4.5	29.3	i	3.7	-3.8	3.3	4.0	-13.3
CC1CCN(c2ccc(C(=O)NCCc3ccccc3)cn2)CC1	-4.8	-58.3	i	-15.5	8.1	2.4	-2.1	10.4
O=C(C1=C[C@@H](C2CC2)C[C@@H](OCCCCO)O1)N1CCOCC1	-5.2&2.0	4.8[16.7 µM]	i	3.4	-4.8	0.4	2.6	5.3
COc1ccc(-c2ccc(SCC(=O)NC3CCCC3)nn2)cc1OC	-8.6	-11.3	i	-1.5	10.0	1.3	-1.2	-11.0
Cc1cccc(CC2CC(=O)N(c3ccc([N+](=O)[O-])cc3)C2=O)c1 (stereo not drawn)	-2.7	-5.4	i	-4.9	-8.0	-4.3	0.7	-3.0
CN(C)CCCNc1nc2cc(-c3ccc(F)cc3)sc2c(=O)n1C	-12.8	5.3	nt	nt	nt	0.3	2.7	nt
COc1ccc(Cn2c(=O)[nH]c3cc(C(=O)N4CCN(c5ccc(C(C)=O)cc5)CC4)ccc3c2=O)cc1	-9.2	51.8	nt	-16.7	-9.8	9.1	-9.0	-7.7
CCC(C)NC(=O)c1cc(C)no1 (stereo not drawn)	-6.1	-39.8	i	-1.8	-6.4	-2.9	5.3	-5.4
CCc1nc(-c2ccc(-c3ccc(OC)cc3)nc2OC)no1	-1.4	-106.4	i	-5.5	9.1	-2.4	0.9	2.4
COc1ccc(C(C)=O)cc1COc1ccc(Cl)cc1Cl	-13.6	-28.6	i	-14.8	18.9	-4.4	-5.1	-5.2
Cc1cc(C)cc(OCC(=O)N(Cc2ccccc2)C2CCS(=O)(=O)C2)c1 (stereo not drawn)	-8.8	12.3	i	0.9	-6.8	-1.6	-1.5	1.4
O=C(O)CCCCCCNC(=O)c1cncc(O)c1	1.3	-0.5	i	-3.3	4.3	0.6	3.7	-2.1
CCCCOc1cccc(/C=N/NC(=O)c2csc(C)c2C)c1	-5.1	nt	i	-0.3	29.8	-6.3	-7.4	2.9
C=C[C@@]1(C)CC(=O)[C@]2(O)[C@@]3(C)[C@@H](O)CCC(C)(C)[C@@H]3[C@H](OC(C)=O)[C@H](O)[C@@]2(C)O1	-5.8	nt	i	nt	4.9	2.6	9.3	nt
CCOC(=O)N1CCC(Nc2c(NCCCN(CC)c3cccc(C)c3)c(=O)c2=O)CC1	-13.6	7.9	i	16.3	-0.3	2.2	-4.0	-3.8
COc1ccc(CC(=O)OCC(=O)c2ccc[nH]2)cc1	-14.2	1.1	nt	nt	nt	4.6	5.6	nt
COc1cc(Cl)ccc1NC(=S)N(CCN(C)C)C(C)c1ccncc1 (stereo not drawn)	-25.5	19.7	i	-5.5	-5.9	-1.5	0.1	-4.5
C[C@]12CCC[C@H](O1)[C@H]([C@@H](O)c1ccccc1)O2	-10.8	nt	nt	nt	-14.9	7.6	6.3	nt
COC(=O)CSc1nc(-c2ccccc2)cc(-c2ccco2)c1C#N	-17.8	-41.6	i	11.2	nt	-5.7	2.7	21.2
O=c1cc(O)c(-c2ccccc2)c(Cl)[nH]1	-15.7	-30.2	i	1.5	nt	-4.3	1.6	-3.7
Cc1ccc(C2N3CC4([N+](=O)[O-])CN2CC([N+](=O)[O-])(C3)C4(C)C)cc1 (stereo not drawn)	-7.7	-4.2	nt	-7.4	0.8	2.2	1.8	1.3
CCC(C(=O)NCCc1c[nH]c2cc(OC)ccc12)c1ccccc1 (stereo not drawn)	-5.1	3.9	i	-1.3	-6.2	3.8	1.3	3.7
O=C(O)c1cn(C2CCCCC2)c2ccccc2c1=O	-8.0	3.7	i	-8.6	-6.5	4.5	-0.3	-2.0

Following part:
SMILES	Yeast UUG start	Env fusion inh	Rce1 inhib	eIF4H inh	CSC inhib	MT1-MMP act inh	MT1-MMP act inh RFP	PABP polyA inh
CCn1cc(C(=O)N[C@@H](CCSC)C(=O)NC(C)(C)CO)c(=O)c2cc3c(cc21)OCO3	-1.5	4.7	i	3.9	-0.9	4.0	4.5	-3.7
CCCOc1ccccc1NC(=O)c1ccc(N)cc1	-1.6	-30.6	i	-0.8	4.3	3.4	-0.3	-4.4
CCCOc1ccc(NC(=O)CC2C(=O)N(C)C(=S)N2Cc2ccc3c(c2)OCO3)cc1 (stereo not drawn)	nt	11.7	i	-3.8	0.2	5.0	-2.9	-11.5
O=C(O)CNC(=O)C(CS)Cc1ccccc1 (stereo not drawn)	-8.3	-11.6	nt	nt	3.0	3.4	1.7	nt
CCN1CCc2c(OCc3ccccc3)cccc2C1=O	nt	9.3	i	-5.3	-1.5	-2.3	-0.8	3.2
CC(CC(=O)Nc1ccc2c(c1)c(=O)n(C)n2Cc1ccc(Cl)cc1)C(F)(F)F (stereo not drawn)	-28.3	7.1	nt	nt	nt	4.3	-8.3	nt
O=S1(=O)C=CC(c2ccccc2)C1 (stereo not drawn)	-2.7	-8.9	i	-2.7	4.9	2.4	-0.5	-10.6
Cc1cccc(NC(=O)C2(c3ccccc3)CCOCC2)c1	nt	-4.4	i	1.4	11.5	1.7	2.6	1.0
CCOC(=O)C1(Cc2cccc(Cl)c2)CCCN(CCO)C1 (stereo not drawn)	-7.2	9.9	i	-1.0	3.8	-0.7	0.0	-4.5
COc1ccccc1C(=O)N/C(=C\c1ccccc1)C(=O)NC(C)C(=O)O (stereo not drawn)	-25.1	6.3	i	-11.4	0.6	-5.4	1.2	-3.4
CN(C)C(CNC(=O)NC1CCCCC1)c1cccnc1 (stereo not drawn)	-8.9	39.2	nt	-7.4	-5.2	2.9	8.3	2.3
CCc1nn(CC(=O)NCCCc2ccccc2)c(=O)c2cc3cc(F)ccc3n12	2.1	nt	i	-8.8	-16.7	-0.4	-0.8	0.4
O=C(CCC1CCCN(C(=O)CCC(F)(F)F)C1)NCc1ccc(F)c(F)c1 (stereo not drawn)	1.1	-12.7	i	-3.5	-10.5	3.0	-1.3	10.5
COc1ccc2c(c1OC)C(=O)OC2Nc1ccccc1S(=O)(=O)C(F)F (stereo not drawn)	-3.6	-5.2	i	-8.1	-3.4	-3.8	-4.1	1.9
Cc1nc2nc(-c3cccnc3)[nH]n2c(=O)c1Cc1ccccc1	-13.4	-2.7	i	-9.5	4.3	6.3	4.3	5.8
Cc1cc(C)c([N+](=O)[O-])cc1-c1ccc(/C=N/NC(=O)c2nonc2N)o1	nt	nt	i	8.3	6.2	-4.1	-14.9	-7.3
C=CCSc1nnc(Cn2c(=O)sc3ccccc32)n1C	6.0	2.0	i	-0.9	-22.7	-3.6	0.4	-24.8
CS(=O)(=O)c1ccc(Cl)c(NC(=O)COC(=O)CCN=C2NS(=O)(=O)c3ccccc32)c1	1.4	nt	i	nt	-0.4	2.2	1.5	nt
CCOC(=O)N1CCN(C(=O)c2ccc(N3C(=O)c4ccccc4C3=O)cc2)CC1	-3.2	nt	i	-9.6	-5.4	-1.6	-0.3	-4.1
O=C(Nc1cc(S(=O)(=O)N2CCOCC2)ccc1N1CCOCC1)c1c(F)cccc1Cl	6.0	2.0	nt	nt	-17.5	-4.3	-4.4	nt
CC(OC(=O)c1ccc(Cl)nc1)C(=O)NC(C)(C)C (stereo not drawn)	nt	3.0	i	2.0	-10.1	2.3	1.6	-2.1
OCC1CCCN(c2ncnc3scc(-c4ccccc4)c23)C1 (stereo not drawn)	nt	42.1	i	-0.6	-22.0	-11.3	-7.6	10.2
CCc1nc2ccc(C(=O)NCCc3c[nH]c4ccccc34)cn2c1N(C)CCCc1ccccc1	1.2	16.4	nt	nt	nt	3.4	-7.1	nt
CC1(c2ccccc2)NC(=O)N(CC(=O)N(CC(=O)Nc2ccccc2C(F)(F)F)Cc2ccco2)C1=O (stereo not drawn)	5.5	-4.0	nt	nt	nt	0.0	1.2	nt
O=C(NCc1ccccc1)c1csc2c1CCCCC2	nt	-35.8	i	-5.8	1.9	1.4	8.8	-9.2
CCCCn1c(N)c(N(CCOC)C(=O)c2cccc(S(=O)(=O)N(C)c3ccc(C)cc3)c2)c(=O)[nH]c1=O	-4.9	11.8	i	nt	-9.2	-2.4	-2.6	nt
CC(C)CC(NC(N)=O)C(=O)OCC(=O)Nc1ccc(SC(F)F)cc1 (stereo not drawn)	nt	24.2	i	-3.6	1.8	3.8	3.0	-4.1
C=CCn1c(SCC(=O)Nc2ccc(Br)cc2)nc(O)c(CC)c1=O	11.6	-7.7	i	-6.8	-2.5	6.4	1.8	12.6
CC1CCCN(C2(O)C(=O)Nc3ccc(Cl)cc32)C1 (stereo not drawn)	nt	-22.3	i	11.3	-7.1	-5.9	-4.5	11.2
